CtBP-E1A inh: qHTS Assay for Inhibitors of the CtBP/E1A Interaction. AlphaScreen GST-E1A/His-CtBP binding, 1536-well; active compounds read low; control for the full effect not named in the record. activity change, % (test concentration not listed). actives 0.49% (n = 340,000). AID 651724, 2012; in the data active means activity change below about -65%; inconclusive means about -30% to -65%; inactive means above about -30%; also: % is scaled to controls: 0 for no effect and ±100 for the full control effect
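Protein mix (5X: 125 nM each GST-E1A, His-CtBP) was incubated with pinned compound 2 h at 37 deg C in dark, in 50 mM Tris pH 8.0 buffer with 300 mM NaCl. Glutathione donor and nickel acceptor beads followed; AlphaScreen signal read after 1 h.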
Sfp inh: qHTS Assay for Inhibitors of Bacillus subtilis Sfp phosphopantetheinyl transferase (PPTase); 4'-phosphopantetheinyl transferase ffp (Bacillus subtilis), Q9F4F7; actives 3.5% (n = 310,000); AID 1490, 2009; Biochemical Sfp PPTase activity, qHTS; Potency, µM, for the others: max response, negative = inhibition, hits mostly inhibitors; active = well fitted inhibition curve with a large enough effect; inconclusive = small, poorly fitted or top-dose-only effect, or another doubt; inactive = no such curve, though single readings can be large or run the other way;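 also: the enzyme is Sfp with the accession as filed and its product quenches rhodamine fluorescence; potency is read from the fitted curve at half-maximal effect; 0% = enzyme reaction without inhibitor and -100% = no enzyme wells; top concentration of the series not given in the record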
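Reaction rates are the 30-min fluorescence difference (ex 525, em 598 nm) in wells containing 15 nM Sfp, 5 uM rhodamine-CoA and 12.5 uM BHQ-2-YbbR at pH 7.6 with 10 mM MgCl2.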
gsp antag: qHTS for Antagonists of gsp, the Etiologic Mutation Responsible for Fibrous Dysplasia/McCune-Albright Syndrome: qHTS; actives 0.4% (n = 340,000); AID 624288, 2012; Potency, µM (top dose mostly 76.9 µM), inactives show at the top dose activity change, negative = inhibition, usual class: inhibitors; gsp-mutant cells, cAMP HTRF, 30 min; control for the full effect not named in the record; active = falling curve of any shape with a large fitted effect; inconclusive = falling curve, mostly with a smaller effect; inactive = flat or rising curve; cell line not stated here;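 also: intracellular cAMP measured with PDE inhibitor Ro 20-1724 present during compound exposure; potency is read from the fitted curve at half-maximal effect; % is scaled to controls: 0 for no effect and ±100 for the full control effect; nearly all actives have a fitted effect of over 65% in size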
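HTRF cAMP measurement after 30 min RT detection following 30 min, 37C compound treatment alongside […] (added as 300 uM solution) in G418-selected cells seeded at 2000/well and grown 16–24 h.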
gsp ag: qHTS for Agonist of gsp, the Etiologic Mutation Responsible for Fibrous Dysplasia/McCune-Albright Syndrome: qHTS; actives 0.13% (n = 340,000); AID 624287, 2012; gsp mutant cells, cAMP HTRF, 30 min; control for the full effect not named in the record; Potency, µM (top dose mostly 76.9 µM), without a hit: top-dose activation (cAMP increase), actives largely listed as activators; active = well fitted activation curve with a large enough effect; inconclusive = small, poorly fitted or top-dose-only effect, or another doubt; inactive = no such curve, though single readings can be large or run the other way; cell line not stated here;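 also: phosphodiesterase inhibitor Ro 20-1724 added with compounds to block cAMP breakdown; potency is read from the fitted curve at half-maximal effect; nearly all actives have a fitted effect of over 60% in size; about a fifth of the inactives were tested at one dose only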
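Cells stably selected in G418 were plated at 2000/well, grown 16-24 hr, then given compounds in DMSO with the PDE inhibitor […] (300 uM solution added) for 30 min at 37C; cAMP was read by HTRF.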
TRPV1 potentiator: HTS Assay for Compounds that Act as Potentiators of the Vanilloid Receptor 1; Transient receptor potential cation channel subfamily V member 1 (Homo sapiens), Q8NER1; TRPV1-expressing cells, Fluo-8 calcium influx, capsaicin EC20 potentiation; host cell line not named in the record; control for the full effect not named in the record; potentiation, % at 8.33 µM; actives 0.02% (n = 320,000); AID 540277, 2011; active means potentiation above 80%; inconclusive means 30% to 80%; inactive means below 30%; also: 0% is about no effect
Target sequence (Q8NER1 whole entry, looked up): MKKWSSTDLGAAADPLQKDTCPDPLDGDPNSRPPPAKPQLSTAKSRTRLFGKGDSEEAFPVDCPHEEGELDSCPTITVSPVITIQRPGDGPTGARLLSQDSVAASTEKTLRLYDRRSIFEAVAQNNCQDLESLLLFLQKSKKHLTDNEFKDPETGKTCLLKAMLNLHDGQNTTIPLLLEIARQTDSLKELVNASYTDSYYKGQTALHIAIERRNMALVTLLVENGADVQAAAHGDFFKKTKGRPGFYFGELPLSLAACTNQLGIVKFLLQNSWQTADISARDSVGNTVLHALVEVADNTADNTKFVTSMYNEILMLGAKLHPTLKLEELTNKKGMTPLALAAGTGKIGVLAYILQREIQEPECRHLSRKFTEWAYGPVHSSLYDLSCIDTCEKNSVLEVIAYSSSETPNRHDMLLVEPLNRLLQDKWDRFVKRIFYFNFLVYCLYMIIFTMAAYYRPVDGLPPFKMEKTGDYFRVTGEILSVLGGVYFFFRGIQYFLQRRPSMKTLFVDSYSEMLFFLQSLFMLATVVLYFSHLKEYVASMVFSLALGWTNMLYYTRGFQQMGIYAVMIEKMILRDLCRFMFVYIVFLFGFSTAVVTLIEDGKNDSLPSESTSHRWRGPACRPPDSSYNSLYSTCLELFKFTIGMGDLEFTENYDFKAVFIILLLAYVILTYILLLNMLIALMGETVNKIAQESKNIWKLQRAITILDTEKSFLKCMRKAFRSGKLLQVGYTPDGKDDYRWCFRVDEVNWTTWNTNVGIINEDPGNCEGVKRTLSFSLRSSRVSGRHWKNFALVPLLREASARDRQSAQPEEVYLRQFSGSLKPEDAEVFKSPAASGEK
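Cells expressing TRPV1 were dye-loaded with Fluo-8 and read kinetically: 10 s baseline, 3 min after compound (agonist portion), then 2 min after EC20 capsaicin (allosteric enhancer portion). Calcium-bound dye fluorescence at 480/520 nm.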
Menin MLL FP FL: qHTS Assay for Inhibitors Targeting the Menin-MLL Interaction in MLL Related Leukemias: Competition With Fluorescein Labeled MLL-derived Peptide; Fluorescence polarization, fluorescein-MLL peptide displacement from menin; FP activity change, % at 61.4 µM; 290,000 tested, under 10 active; AID 1766, 2009; inconclusive = falling polarisation curve, or a change in total fluorescence; inactive = total fluorescence flat and polarisation flat or rising; no compound was filed as active; the % refers to the polarisation; negative = inhibition;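 also: % of control where 0% means no effect; inhibitors lower the polarisation; unlabelled MLL peptide was the positive control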
ClpP mod: qHTS Assay for Activators of ClpP | ATP-dependent Clp protease proteolytic subunit (Bacillus subtilis (strain 168)), P80244 | purified B. subtilis ClpP, FRET peptide cleavage, 20 min | actives 1.9% (n = 340,000) | Potency, µM (highest dose often 57.5 µM), for the others: at the top dose activity change, negative = active; active = well fitted falling curve with a large enough effect; inconclusive = small, poorly fitted or top-dose-only effect; inactive = no such curve, though single readings can be large or run the other way; also: potency is read from the fitted curve at half-maximal effect; the source files actives as falling curves though it sought activators and does not explain the sign; nearly all actives have a fitted effect of over 65% in size; many hits overshoot -100%
Target sequence (P80244 whole entry, looked up): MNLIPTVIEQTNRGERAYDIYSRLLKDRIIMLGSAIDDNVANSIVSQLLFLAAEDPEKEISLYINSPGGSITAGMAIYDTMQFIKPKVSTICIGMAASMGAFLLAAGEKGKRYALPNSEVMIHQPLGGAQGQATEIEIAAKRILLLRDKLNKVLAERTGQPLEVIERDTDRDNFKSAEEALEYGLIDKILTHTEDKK
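Buffer: 100 mM Tris/HCl pH8, 100 mM KCl, 0.05% low protease BSA, 2.5% glycerol, 0.01% Tween-20. ClpP 10 microg/mL final; 20 min RT; delta FRET normalized to ADEP and DMSO controls.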
Numbers without * were called inactive; ? = inconclusive; . = no result given; & = joins results of further samples; [ ] = another dose, or the depositor's remark.

SMILES	CtBP-E1A inh	Sfp inh	gsp antag	gsp ag	TRPV1 potentiator	Menin MLL FP FL	ClpP mod
CCOC(=O)C1(CC2CCCCO2)CCN(C(=O)Nc2cccc(SC)c2)CC1 (configuration not stated)	-15	11%	-11%	16%[15.4 µM]	-4	-5.3	.
C=CCSC1=C(C#N)C(c2ccccc2Cl)CC(=O)N1 (configuration not stated)	-11	35µM*	-5%	-5%	0	3.2	-2.4%
O=C(CCCN1C(=O)c2ccccc2C1=O)NCC1CCCO1 (configuration not stated)	-1	29%	16%	22%	-5	-0.9	-0.1%
O=C(NC(Cc1ccccc1)C(=O)N1CCN(S(=O)(=O)c2ccccc2F)CC1)c1ccccc1 (configuration not stated)	3	.	-10%	29%[15.4 µM]	-6	.	.
CN1CCN(C(=S)Nc2ccc(Cl)cc2)CC1	14	12%	14%	-69%[inhibitor]	-8	-0.4	1.0%
CC(C)(C)NC(=O)CC(CC(=O)O)c1ccccc1 (configuration not stated)	-7	10%	-2%	5%	24	-0.5	-2.8%
COc1cc(OC)cc(-c2c(C#Cc3ccsc3)c3cc(-c4cccc5[nH]cc(C=O)c45)ccc3n2C)c1	0	.	-4%	11%	.	.	27%
Cn1c(=O)c2c(nc(Sc3n[nH]c(N)n3)n2Cc2ccccc2Cl)n(C)c1=O	6	-11%	6%	?	21	8.0	0.8%
N#CC1=C(S)N=C(N)C(c2nc(-c3ccccc3)cs2)C12CCCCC2 (configuration not stated)	-14	0%	2%	?	-7	?	-0.8%
Cc1ccc(C(=O)OCC(=O)NCc2cccs2)c(C)c1	-3	5%	2%	-1%	-19	-3.6	.
Cc1ccc(Nc2nc(N)nc(CSc3nnnn3-c3ccccc3)n2)cc1	1	-12%	10%	26%	-1	4.0	-1.2%
COc1ccc(CN2C(=O)C(C)Nc3ncnc(N4CCOCC4)c32)cc1 (configuration not stated)	5	.	4%	.	.	.	-0.3%
Cn1c(SCC(=O)Nc2ccc3nc(SCC(=O)N4CCCC4)sc3c2)nnc1-c1ccccc1	-11	-22%	-25%	-12%	12	0.7	-6.2%
COCCN(C(=O)CSCc1ccc(C)cc1)c1c(N)n(CC(C)C)c(=O)[nH]c1=O	11	.	13%	-30%[inhibitor]	-17	.	-0.6%
Cc1ccsc1C(=O)OCC(=O)Nc1ccc(Cl)cc1C(F)(F)F	9	4%	10%	?	-17	0.9	0.4%
Cc1nnc(SCC(=O)NC(=O)NC(C)(C)C)s1	-17	12%	11%	2%[15.4 µM]	6	-3.3	.
O=C(O)c1cc(S(=O)(=O)N2CCOCC2)c[nH]1	.	.	11%	10%	10	.	1.0%
CCn1ccnc1CN(C)C(=O)c1cc(COc2ccc(-n3cncn3)cc2)on1	2	11%	0%	9%	7	2.8	.
CN(C)S(=O)(=O)Nc1ccccc1C(N)=O	1	32%[activator]	13%	11%	5	-2.6	22µM*
COc1ccccc1CCNC(=O)c1ccc(OC)c(OC2CCN(C(C)C)CC2)c1	6	1%	22%	-5%[15.4 µM]	-3	.	0.7%
CC(Sc1ncnc2sc(-c3ccccc3)cc12)C(=O)N1CCNC1=O (configuration not stated)	6	.	-1%	-14%	18	.	-5.9%
CN(C)C(=O)[C@@H]1C[C@H]1[C@@H](NC(=O)OCc1ccccc1)c1ccccc1	-3	15%&11%	9%	-5%	-25	4.8&-3.4	-1.2%
Cc1nc2cc(-c3ccc(F)cc3)nn2c(N2CCOCC2)c1C	.	21%	.	.	11	-0.6	.
O=C(CCC(=O)c1ccc(-c2ccccc2)cc1)Nc1cccnc1	-3	-4%	0%	-9%	-7	5.9	0.5%
CCCCNC(=O)c1onc(CSc2ccc(F)cc2)c1C(=O)O	0	-19%	-12%	-47%[inhibitor]	2	0.3	2.4%

Another view of part of the listing above.
Every second line gives: CtBP-E1A inh, Sfp inh, gsp antag, gsp ag, TRPV1 potentiator, Menin MLL FP FL, ClpP mod
- COCCN(C(=O)CSCc1ccc(C)cc1)c1c(N)n(CC(C)C)c(=O)[nH]c1=O
    11, ., 13%, -30%[inhibitor], -17, ., -0.6%
- CC(C)(C)NC(=O)CC(CC(=O)O)c1ccccc1 (configuration not stated)
    -7, 10%, -2%, 5%, 24, -0.5, -2.8%

Next records.
SMILES	CtBP-E1A inh	Sfp inh	gsp antag	gsp ag	TRPV1 potentiator	Menin MLL FP FL	ClpP mod
Cc1cc(-c2ccc(C)c(S(=O)(=O)NCC3CCN(Cc4ccccc4F)CC3)c2)on1	-6	8%	-5%	0%	2	4.4	-1.7%&-0.3%
CCN(CC)c1nc2c3c(nc4c(c3c1C#N)CC(=O)N4c1ccc(Cl)cc1)NC(C)=N2	-4	?	-10%	7%	19	16	?
COc1cc2c(cc1OC)C(O)C(O)(CO)C(C(=O)O)C2c1cc(OC)c(OC)c(OC)c1 (configuration not stated)	6	.	15%	6%	.	.	.
O=C(O)/C(=C\c1ccc(Br)cc1)NC(=O)c1cccs1	0	22%	10%	-5%	-2	6.0	.
CC1CCc2ccccc2N1C(=N)N(C)C (configuration not stated)	3	14%	10%	-8%[15.4 µM]	-13	-1.9	-0.8%
COc1ccc(CCNC(=O)CSc2nnc3c(n2)[nH]c2ccc(F)cc23)cc1OC	6	2%	3%	-1%	0	-1.0	.
CCN(CC)S(=O)(=O)c1ccc(N2CCOCC2)c(NC(=O)c2ccccc2)c1	10	-4%	3%	26%	-13	.	1.4%
O=C(CCC(=O)Nc1ccccc1)NNC(=O)c1ccco1	11	19%	8%	?	7	3.8	-0.8%
O=C(NCCc1cccc(F)c1)C1CCCN(c2nc3ccccc3s2)C1 (configuration not stated)	5	-6%	-17%	?	14	8.7	.
Cc1ncc([N+](=O)[O-])n1CC(C)O (configuration not stated)	-10	16%&23%&18%	-4%	.	13&0	-0.9&-1.7&-4.7	-1.2%
O=C(Nc1cccc(S(=O)(=O)N2CCCCC2)c1)c1cncc(Br)c1	-16	.	-20%	4%	.	.	-1.0%
CCCc1nnc(NC(=O)c2cc3ccccc3o2)s1	7	6%	4%	-22%[15.4 µM]	-8	.	.
COc1ccc(N(Cc2cc3ccc(C)cc3[nH]c2=O)C(=O)c2ccco2)cc1	-1	?	36%[activator]	-6%	-4	4.8	-1.8%
N/C(=N\OC(=O)Cc1ccccc1)c1cccc(Br)c1	-1	14%	3%	-6%[15.4 µM]	-3	0.7	-0.2%
O=C(Cc1ccccc1)Nc1ccccc1C(=O)Nc1ccc(C(=O)O)cc1	5	15%	13%	-4%[15.4 µM]	11	-0.7	.
CCOC(=O)Cn1c(=O)oc2cc(S(=O)(=O)Nc3c(C)cc(C)cc3C)ccc21	1	3%	-24%	-19%	-8	10	0.0%
Cc1ccc(C(=O)N2CCN(c3ncccn3)CC2)cc1S(=O)(=O)N1CCCCC1	-7	-19%	4%	?	9	7.4	-11%
NNc1nc(-c2ccccc2)cs1	-2	-12%	9%	-22%	14	4.1	.
O=C(Nc1ccc(S(=O)(=O)Nc2nccs2)cc1)c1cc(=O)[nH]c2ccccc12	.	19%	7%	-2%	.	24	0.3%
O=C1CSCC(=O)N1c1ncc(C(F)(F)F)cc1Cl	-8	2%	-1%	2%[15.4 µM]	20	1.9	-1.2%
Cc1ccc(N2CCN(C(=O)c3cc(-c4ccc(F)cc4)[nH]c3C)CC2C)cc1 (configuration not stated)	-20	-11%	?	-1%[15.4 µM]	4	-5.8	?
CCCCCCC(=O)Nc1nc(C)c(-c2csc(Nc3ccc(Cl)cc3)n2)s1	-4	-1%	-17%	.	2	6.2	-5.3%
CC(=O)Nc1nonc1NC(=O)COc1ccccc1	-3	23%	-3%	-13%[15.4 µM]	5	1.6	.
CC(=O)C1=C(C)NC(=O)NC1c1ccccc1 (configuration not stated)	-1	8%	-12%	-19%	15	2.1	0.8%
Cc1cccc(NC(=O)Cc2coc3ccc4ccccc4c23)n1	-6	56µM*	-4%	-45%[inhibitor]	-1	0.2	-5.8%

Remaining list, next part:
SMILES	CtBP-E1A inh	Sfp inh	gsp antag	gsp ag	TRPV1 potentiator	Menin MLL FP FL	ClpP mod
O=C(c1ccc(S(=O)(=O)Nc2ccccc2F)cc1)N1CCN(c2ccccc2O)CC1	2	.	-55%	-51%[inhibitor]	-7	.	1.6%
CCc1nnc(NS(=O)(=O)c2ccc(NC(=S)NC(=O)c3ccc(Br)cc3)cc2)s1	3	?	?	-10%	-7	-2.7	-1.3%
COc1ccccc1N1CC(C(=O)Nc2nnc(SCc3cccnc3)s2)CC1=O (configuration not stated)	0	-16%	-2%	-9%	5	-1.7	-1.5%
Cc1cc(NC(=O)CCC2CCCCC2)no1	0	-9%	16%	8%	-29	2.1	-6.3%
Cc1cccc(C(=O)NC(=S)NNC(=O)c2ccccc2Cl)c1	-3	-19%	6%	47%	-10	-0.3	-2.0%
Brc1ccc(CSc2nnc(-c3ccccn3)n2Cc2ccco2)cc1	-9	-25%	6%	2%	10	4.6	0.3%
COc1cc(NC(=O)c2ccc(Br)cc2)ccc1NC(=O)c1cc2ccccc2o1	.	18%	1%	3%	3	-5.7	-1.8%

4 compounds already listed, arranged by formula weight, descending:
SMILES	CtBP-E1A inh	Sfp inh	gsp antag	gsp ag	TRPV1 potentiator	Menin MLL FP FL	ClpP mod
COc1cc(NC(=O)c2ccc(Br)cc2)ccc1NC(=O)c1cc2ccccc2o1	.	18%	1%	3%	3	-5.7	-1.8%
O=C(Cc1ccccc1)Nc1ccccc1C(=O)Nc1ccc(C(=O)O)cc1	5	15%	13%	-4%[15.4 µM]	11	-0.7	.
CN(C)C(=O)[C@@H]1C[C@H]1[C@@H](NC(=O)OCc1ccccc1)c1ccccc1	-3	15%&11%	9%	-5%	-25	4.8&-3.4	-1.2%
CN(C)S(=O)(=O)Nc1ccccc1C(N)=O	1	32%[activator]	13%	11%	5	-2.6	22µM*
